Screening data: PubChem BioAssay, National Center for Advancing Translational Sciences (NCATS)
Six1-Eya2 blk = inhibitors of human Six1/Eya2 interaction; actives 0.56% (n = 360,000); activity change, % (test concentration not listed); Q15475+O00167; AlphaScreen GST-Six1/His-Eya2 binding, biochemical; stronger effect = lower value; control for the full effect not named in the record; AID 651725; in the data active = activity change below about -65%; inconclusive = about -30% to -65%; inactive = above about -30%; also: % is scaled to controls: 0 for no effect and ±100 for the full control effect; compound concentration not given in the record
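AlphaScreen with GST-Six1 and His-Eya2 (5X mix: 250 nM and 500 nM), glutathione donor and nickel acceptor beads; buffer 50 mM Tris pH 8.0, 300 mM NaCl, 1 mM TCEP; 1 h at 37 C in the dark.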
TRPML1 ag = human mucolipin-1 channel agonism; activation, % (test concentration not listed); Q9GZU1; AID 624414; TRPML1-expressing cells, Ca2+ dye fluorescence, FDSS; host cell line not named in the record; reference of the full effect not given here; actives 0.12% (n = 410,000); in the data active = activation above about 50%; inconclusive = about 30% to 50%; inactive = below about 30%; also: 0% is about no effect; the text of the record puts the active cut at 80%
Target sequence (Q9GZU1 whole entry, looked up): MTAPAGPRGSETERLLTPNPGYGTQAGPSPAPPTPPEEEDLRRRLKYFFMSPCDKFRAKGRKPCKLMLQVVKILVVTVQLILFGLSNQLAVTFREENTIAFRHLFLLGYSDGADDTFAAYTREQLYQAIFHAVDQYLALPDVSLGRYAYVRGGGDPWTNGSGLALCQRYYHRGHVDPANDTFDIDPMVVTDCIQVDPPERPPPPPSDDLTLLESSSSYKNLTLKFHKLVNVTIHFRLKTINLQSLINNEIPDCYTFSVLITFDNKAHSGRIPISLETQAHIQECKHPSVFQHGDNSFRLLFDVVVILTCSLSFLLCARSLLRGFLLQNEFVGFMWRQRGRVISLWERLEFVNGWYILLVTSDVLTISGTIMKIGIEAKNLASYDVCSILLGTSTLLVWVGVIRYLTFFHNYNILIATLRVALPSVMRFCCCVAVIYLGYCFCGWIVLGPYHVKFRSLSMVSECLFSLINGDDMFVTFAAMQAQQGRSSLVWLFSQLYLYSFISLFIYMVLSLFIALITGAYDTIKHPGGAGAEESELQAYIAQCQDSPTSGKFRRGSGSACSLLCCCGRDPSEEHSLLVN
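Kinetic FDSS Ca2+ read in Tet-induced TRPML1-DL cells (ABD Ca8 dye plus quencher, 45-90 min RT loading): baseline, then compound, then 110 s agonist window; EC80 agonist 54-4 at 4uM final added afterwards for a 110 s antagonist window.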
TRPML1 inh = blocks the human TRPML1 channel; Q9GZU1; TRPML1-inducible cells, Ca2+ dye fluorescence, FDSS; stronger effect = lower value; inhibition of EC80 agonist-evoked calcium signal; activity change, negative = inhibition, % (no concentration beside the values); actives 0.02% (n = 390,000); AID 624415; in the data active means activity change below about -50%; inconclusive means about -30% to -50%; inactive means above about -30%;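 also: stimulus is agonist 54-4 at its EC80 concentration; % is scaled to controls: 0 for no effect and ±100 for the full control effect; compound concentration not given in the record; the text of the record puts the active cut at -80%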
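Tet-induced TRPML1-DL cells loaded with Ca8 no-wash calcium dye were read kinetically on FDSS. Compound addition was followed by EC80 agonist 54-4 (4 uM final); inhibition was read over 110 s.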
PINK1 modulator = modulators of PINK1 expression. PINK1 immunofluorescence, high-content cytometry, 24 h. Potency, µM (top dose mostly 76.6 µM), without a hit: at the top dose activation (PINK1 increase), usual class: activators. actives 0.2% (n = 410,000). AID 624263; active = well fitted activation curve with a large enough effect; inconclusive = small, poorly fitted or top-dose-only effect; inactive = flat fitted curve, though single readings scatter; cell line not stated here;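 also: potency is read from the fitted curve at half-maximal effect; % of control where 0% means no effect; nearly all actives have a fitted effect of over 65% in size; a mitochondrial uncoupler was the plate control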
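Cells are seeded, rested 12 hours, then given compound at five concentrations or DMSO for 24 hours. After fixation, blocking and antibody staining, PINK1 amount and mitochondrial localization are scored; CCCP serves as control.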
D2 PAM = positive allosteric modulators of human D2 dopamine receptor | P14416 | DiscoveRx D2 beta-arrestin cells, luminescence, 90 min; 100% = 57 uM dopamine signal | potentiation, % (test concentration not listed) | actives 0.23% (n = 360,000) | AID 624464; active = potentiation of 50% or more; inconclusive = 30% to 50%; inactive = 30% or less;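 also: compound concentration not given in the record; tested on top of an EC20 dose of dopamine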
Target sequence (P14416 whole entry, looked up): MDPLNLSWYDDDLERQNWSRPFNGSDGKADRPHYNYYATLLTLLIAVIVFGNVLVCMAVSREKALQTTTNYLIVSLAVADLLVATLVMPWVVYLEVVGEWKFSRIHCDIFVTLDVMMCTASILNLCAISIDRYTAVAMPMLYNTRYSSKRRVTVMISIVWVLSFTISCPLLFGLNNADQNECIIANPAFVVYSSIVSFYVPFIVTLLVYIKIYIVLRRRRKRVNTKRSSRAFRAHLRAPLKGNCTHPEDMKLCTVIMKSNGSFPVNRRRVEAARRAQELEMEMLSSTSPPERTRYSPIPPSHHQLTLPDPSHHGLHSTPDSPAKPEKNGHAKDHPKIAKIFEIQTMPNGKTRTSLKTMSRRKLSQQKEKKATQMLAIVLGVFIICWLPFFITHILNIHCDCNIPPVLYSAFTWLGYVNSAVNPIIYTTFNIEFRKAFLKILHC
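PathHunter beta-arrestin assay in DiscoveRx D2 cells. Compounds were added with an EC20 of dopamine (50 nM final) for 90 min at 37 deg C. Luminescence was read 1 h after detection reagent, with 57 uM dopamine as the EC100 control.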
D2 ag = human D2 receptor agonism in beta-arrestin assay | activation, % (concentration not given with the values) | DiscoveRx PathHunter D2 beta-arrestin, luminescence, 90 min; 100% = 57 uM dopamine signal | AID 624465 | actives 0.084% (n = 360,000); in the data active = activation above about 40%; inconclusive = about 15% to 40%; inactive = below about 15%; also: compound concentration not given in the record; the text of the record calls up to 30% inactive
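Agonist mode: compounds alone added to overnight-plated D2 PathHunter cells for 90 min at 37 C, with 57 uM final dopamine (EC100) defining full response. Beta-arrestin recruitment detected by chemiluminescent reagent, read after 1 h at ambient temperature.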
Active calls of the source: *; ? = inconclusive; / = not tested or not shown; & = joins results of further samples; [ ] = remark or other dose. Outcome played no part in choosing rows; 1% or so of the library scored in one or more.

Order of results: Six1-Eya2 blk	TRPML1 ag	TRPML1 inh	PINK1 modulator	D2 PAM	D2 ag
O=S(=O)(Nc1ccccc1N1CCOCC1)c1ccccc1C(F)(F)F
→ 0.0	-0.5	-8.5	2.1%	9.1	8.0
O=C(c1ccccc1)N1CCN(c2ccc([N+](=O)[O-])cc2-n2cccc2)CC1
→ -4.9	1.2	45.6	1.0%	-7.5	-7.0
CCC(=O)N1CCc2cc(CNS(=O)(=O)c3ccc(NC(=O)CC(C)C)cc3)ccc21
→ /	-0.3	17.2	2.3%	/	/
Cc1ccc(NS(=O)(=O)c2c(C)ccc3nsnc23)c([N+](=O)[O-])c1
→ -0.8	0.0	2.8	3.5%	-4.4	-7.3
Cc1cccc(S(=O)(=O)N2CCCc3ccccc32)c1
→ 20.0	0.3	30.4	3.4%	-1.7	-6.7
CCNC(=O)C1(C)CCCN1C(=O)c1ccc(N(C)C)cc1 (configuration not stated)
→ -3.6	0.1	6.1	-0.3%	-2.9	-3.9
CC(C)C[C@H]1CNC(=S)N1CC1CCCN1C[C@H](Cc1ccc(O)cc1)N1C[C@H](Cc2ccccc2)N(CC2CCCCC2)C1=S (some centres not stated)
→ ?	-1.0	20.6	5.8%	-18.8	-0.5
O=C(CSc1nnc(-c2ccco2)n1Cc1ccco1)NCc1cccs1
→ 4.6	2.2	13.3	-2.3%	0.6	-2.8
CCNS(=O)(=O)c1ccc(C(=O)OCC(=O)N2CCCc3ccccc32)cc1
→ -0.7	-0.4	-9.9	0.2%	1.1	4.9
CC(=O)NC1C(=O)N(C)c2ccc(Br)cc21 (configuration not stated)
→ 4.1	-0.6	-6.7	3.0%[38.3 µM]	-16.0	-2.1
Cc1ccc(NC(=O)CSc2nnc(C)n2CC2CCCO2)cc1 (configuration not stated)
→ 5.3	-0.2	0.9	-2.0%	-11.9	2.8
NC(=S)N/N=C/c1ccc(Br)o1
→ -0.4	0.5	2.3	-0.8%	-4.5	-6.5
COc1cc2c(cc1OC)C(COc1cc(C)cc(C)c1)N(C(=O)C(C)(C)C)CC2 (configuration not stated)
→ /	2.0	37.7	-4.3%	/	/
COc1ccc(/C=N/NC(=S)Nc2cc(C(F)(F)F)ccc2Cl)cc1
→ 13.7	0.5	17.4	1.0%	-3.3	-2.2
CC1(c2nnc(Cc3ccccc3)o2)CC(c2ccc(F)cc2)=NO1 (configuration not stated)
→ 14.9	-0.4	-0.6	-1.0%	-5.3	-1.1
COc1ccccc1NC(=O)CCN1C(=O)C2CC=CCC2C1=O (configuration not stated)
→ -3.0	0.3	43.6	0.2%	-7.6	-0.6
COc1cccc(C2=NOC(C(=O)Nc3ccc4c(c3)OCO4)C2)c1OC (configuration not stated)
→ -14.1	2.7	-3.6	1.4%	-15.6	0.8
O=C(CCC(=O)N1CCOc2ccccc21)NCCCN1CCCCC1
→ -0.8	-0.4	-6.6	-0.8%	-5.3	-2.7
CCOc1ccc(/C=C2\CCC(C3CCCC3)C2=O)cc1OC (configuration not stated)
→ 10.0	0.4	1.3	2.9%	-5.2	2.5
CCC(CC)NC(=O)Cc1ccc(F)cc1
→ 0.6	-0.1	14.7	2.4%	-2.5	1.2
OCCN(CCO)c1cc2c3ccccc3ccc2c2ccccc12
→ 2.3	1.4	-3.3	4.4%	-10.8	-0.5
COc1ccc(-n2ncc3c2ncn2nc(Cc4ccccc4)nc32)cc1
→ /	-0.3	16.1	0.7%	/	/
O=c1c2c(nc3n1CCCCC3)-c1ccccc1CC21CCCC1
→ -1.4	2.6	24.4	?	-10.3	0.1
Cc1ccccc1-c1cc(C(=O)NCc2cccc(C(F)(F)F)c2)n(CC2CC(c3cccnc3)=NO2)n1 (configuration not stated)
→ 1.1	2.5	-11.5	0.6%	-15.9	4.8
COc1ccc(CN2C(=O)C(CC(=O)NCc3cccs3)CC(C(=O)N(C(C)C)C(C)C)=C2C)cc1 (configuration not stated)
→ 7.7	-0.3	0.0	5.6%	5.5	-0.9
CCOc1ccccc1NC(=O)Cn1nc2c3cc(F)ccc3n(Cc3cccc(C)c3)cc-2c1=O
→ /	2.9	-21.9	?	/	/
CCOC(=O)c1ccc2nc(NC(=O)c3ccco3)sc2c1
→ 0.1	-0.1	23.5	0.2%	1.8	-0.5
Cc1ccc(C2CCN(C(=O)Nc3ccc(Cl)c(Cl)c3)C2)cc1 (configuration not stated)
→ /	2.5	36.0	1.5%	/	/
Nc1c(Cl)cc(C2=NCCn3c2c2ccc([N+](=O)[O-])cc2[n+]3[O-])cc1Cl
→ -16.2	-0.1	2.8	0.2%	10.2	10.4
CCOC(=O)c1cnc(SC)nc1Oc1cccc(NS(=O)(=O)c2ccccc2)c1
→ 0.2	0.0	3.7	12.7%	-2.3	0.6

Reprinted at random: 2 records from the list, in no set order.
Order of results: Six1-Eya2 blk	TRPML1 ag	TRPML1 inh	PINK1 modulator	D2 PAM	D2 ag
CCOC(=O)c1cnc(SC)nc1Oc1cccc(NS(=O)(=O)c2ccccc2)c1
→ 0.2	0.0	3.7	12.7%	-2.3	0.6
O=c1c2c(nc3n1CCCCC3)-c1ccccc1CC21CCCC1
→ -1.4	2.6	24.4	?	-10.3	0.1

Next section:
Order of results: Six1-Eya2 blk	TRPML1 ag	TRPML1 inh	PINK1 modulator	D2 PAM	D2 ag
CS(=O)(=O)n1nc(-c2ccco2)nc1NCc1ccccc1Cl
→ /	0.7	21.1	-0.6%	/	/
Cc1ccc(CNC(=O)C2CCN(S(=O)(=O)c3cccnc3)CC2)cc1
→ 0.8	0.0	-19.6	1.7%	-2.9	-2.4
Cc1ccccc1OCCC(=O)N1CCN(S(=O)(=O)c2ccccc2F)CC1
→ -2.1	-0.1	-0.1	1.2%	-0.1	-3.2
O=C(CCCCn1c(=O)c2ccccc2n(Cc2ccc(Cl)cc2)c1=O)NCc1ccco1
→ 4.3	1.4	6.4	15.5%	-3.8	-2.6
CCOC(=O)c1ccc(NC(=O)C2CCN(S(=O)(=O)c3ccccc3)CC2)cc1
→ -8.0	0.0	1.4	1.7%	-4.0	-1.3
Cc1cc(=O)oc2cc(Oc3ccc(C(N)=O)cc3[N+](=O)[O-])ccc12
→ -12.1	0.3	25.0	0.1%	-4.2	-2.9
Cc1c(C(=O)N/N=C/c2cccc(O)c2)nnn1-c1nonc1N
→ 7.2	-0.4	11.3	-0.2%	-0.8	3.5
Cc1nn(C(=O)c2cccc(Cl)c2)c(C)c1S(=O)(=O)N1CCOCC1
→ /	0.7	-7.4	2.8%	/	/
CC(C)OCCCn1c(=NC(=O)c2cccs2)c(C#N)cc2c(=O)n3ccccc3nc21
→ -6.6	3.9	-19.8	6.8%	1.7	2.4
O=C(Nc1ccc2c(c1)nc1n2CCN(Cc2ccccc2)C1)NC1CCCCC1
→ -12.6	0.3	4.8	10µM*	-7.6	-2.3
Cc1ccc(S(=O)(=O)N(C)c2ccc(OC(=O)c3cccs3)cc2)cc1
→ 14.7	0.2	39.0	1.7%	-5.7	-0.3
Cc1ccc(-c2nn(-c3ccccc3)cc2CNCc2ccccc2)cc1
→ 8.9	0.2	32.5	0.2%	-20.8	2.0
CCN(c1ccc(NC(=O)CCNC(=O)c2ccco2)cc1)C(C)C
→ 2.9	0.5	10.8	-1.2%	-7.2	-2.4
COc1ccc(N=Cc2[nH]c3ccccc3c2O)cc1
→ 5.8	0.0	-0.6	3.9%	-2.1	-1.8
O=C(COC(=O)c1ccccn1)NCc1ccc(Cl)cc1Cl
→ -8.2	0.9	-3.1	-1.3%	-0.9	0.2
CCn1c(C(=O)Nc2cc(Cl)ccc2C)cc2sc(Cl)cc21
→ /	1.3	16.9	2.3%	/	/
CCn1c(SCC(=O)NC2CC2)nnc1-c1ccc(C)cc1
→ 0.5	0.4	-3.3	2.0%	-6.0	-2.8
O=NN(C(=O)NC1CCC(C(=O)O)CC1)C1CCC(C(=O)O)CC1 (configuration not stated)
→ 6.6	-0.6	/	-1.1%	0.5	-3.9
COC(=O)c1cc(-c2c(-c3cc(OC)c(OC)c(OC)c3)noc2C)cc([N+](=O)[O-])c1
→ -13.2	2.3&-0.8	46.0	3.4%	-9.0	-1.2
COc1ccccc1NC(=O)Cc1noc(CSc2nnc(C)s2)n1
→ -4.1	-0.6	4.0	-18.4%[38.3 µM]	-3.0	-1.1
CCOc1ccc(/C=N/NC(=O)c2ccoc2C)cc1OC
→ -0.3	-0.3	21.4	1.5%	-4.4	4.1
CCc1nc2ccc(C(=O)NCCCN(C)C)cn2c1N(CC)CCOC
→ -0.2	0.1	-5.2	-0.3%	-11.3	-3.4
C=C(C)Cn1cnc2cc(C)c(C)cc21
→ 2.6	0.4	-4.3	1.5%	-10.6	-2.0
O=C(CCC(=O)NNC(=O)Cc1ccccc1)NCc1ccccc1
→ 4.1	-0.2	-7.3	6.6%	-1.7	-1.3
O=C(NCc1cccs1)c1ccc(Cn2c(SCc3ccccc3)nc3cccnc32)cc1
→ /	0.3	-2.2	5.8%	/	/
COC1OC(CO)C(O)C(O)C1O (configuration not stated)
→ 2.6	/	/	0.1%	-39.5	-6.0
O=C(c1ccc(F)cc1)n1nc(-c2ccccc2)nc1NCc1ccc(F)cc1
→ /	2.4	54.4	0.3%	/	/
O=C(CSc1nccn1Cc1ccc(Cl)cc1)Nc1ccc2c(c1)OCO2
→ /	2.4	3.2	2.5%	/	/
Cc1ccc(-n2[nH]c(C)c(CCC#N)c2=O)cc1
→ 6.2	-0.3	10.1	1.5%	-9.5	-5.5
CC(=O)Nc1cc2cc(NS(=O)(=O)c3ccc(C)cc3)ccc2oc1=O
→ -3.5	-0.4	-12.0	-0.8%	-7.3	-0.8
COc1ccc(Nc2nc(-c3c[nH]c4ccccc34)cs2)cc1
→ -22.9	0.8	19.3	9.6%	-12.2	4.7
O=C(Nc1ccc(Cl)cc1)Nc1ccc(S(=O)(=O)Nc2ncccn2)cc1
→ -10.4	-0.4	-4.0	1.7%	0.7	-2.7
Cc1ccc(S(=O)(=O)N2CCOCC2)cc1NC(=O)CSc1nnc2n1CCCCC2
→ 1.8	0.7	-4.6	0.4%	0.5	-0.3
Cc1cc(OCc2ccccc2)ccc1/C(O)=C1/C(=O)C(=O)N(Cc2cccnc2)C1c1ccncc1 (configuration not stated)
→ -0.8	0.3	11.8	1.7%	-14.8	1.3
OCc1ccccc1OCCCOc1cccc2cccnc12
→ -6.5	0.9	-8.0	1.6%	-6.9	6.1
COc1ccc(OCC(=O)NCCCn2ccnc2)cc1
→ -2.7	0.0	25.4	1.2%	-5.4	-1.5
CN(C)/C=N/c1ncc(C(=O)c2ccc(-c3ccccc3)cc2)s1
→ 1.0	2.8	2.4	-0.6%	9.8	5.1
CCS(=O)CCSc1nc2ccccc2s1 (configuration not stated)
→ -0.2	-0.2	8.3	-3.6%	3.3	-1.7
CCN1C/C(=C/c2cccs2)c2nc3ccccc3c(C(=O)O)c2C1
→ -0.1	0.1	-12.9	1.2%	-12.4	-0.4
Cc1cc2cc(CCNC(=O)c3cccs3)c(=O)[nH]c2cc1C
→ 2.1	-1.3	-10.3	0.4%	5.0	-30.4
COc1ccc(-c2noc(N3CCN(c4ccc(C)cc4)C(C)C3)n2)cc1OC (configuration not stated)
→ /	-0.1	-3.0	3.2%	/	/
